# Ecoli rRNA inh: selective bacterial rRNA inhibition in E. coli; actives 1.6% (n = 350,000); GFP signal change (wild-type ribosome), % (test concentration not listed); E. coli WT GFP vs humanized-ribosome RFP mutants, fluorescence, 24 h; hits give low values; DMSO median 0, no signal -100;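 active = significant combined selectivity score with lowered wild-type GFP, culture density cut under 30%, mutant RFP and density less affected; inactive = any of these conditions unmet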; note: one replicate is shown; some compounds called inactive have numbers as strong as hits
# Ecoli rRNA inh OD600: further read-out of Ecoli rRNA inh, marked with its call; OD600 change, %; measured here: OD600 growth;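 optical density of the mix in the first replicate; 0 = DMSO median and -100 = no signal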
# Ecoli rRNA inh RFP: second read-out of Ecoli rRNA inh, no call of its own (marks repeat the call); RFP signal change, %; measured here: RFP humanized mutant strains;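 first replicate; 0 = DMSO median and -100 = no signal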
# * = called active by the depositor. These rows are one share of the data; count on the stated rates, not on these rows.
SMILES,Ecoli rRNA inh,Ecoli rRNA inh OD600,Ecoli rRNA inh RFP
COc1ccc2c3c([nH]c2c1)[C@@H](CO)N(C(=O)c1ccccc1)CC31CCN(Cc2cccnc2)CC1,1,15,-2.1
C/C=C/c1ccc([C@H]2[C@@H](CO)N3CCCCN(S(=O)(=O)c4cccc(C)c4)C[C@@H]23)cc1,-7,-39,4.7
COc1ccccc1S(=O)(=O)N1CC[C@@H]2[C@H]1c1cc(Br)ccc1N[C@@H]2CO,-9,-7,4.4
CCCNC(=O)Nc1ccc2c(c1)C(=O)N(C)[C@@H]1CC[C@@H](CC(=O)O)O[C@@H]1CO2,0,1,-2.0
COCOc1cccc(CN2CCC2(C)C(=O)Nc2cc(OC)ccc2OC)c1 (stereo unspecified),-14,-29,-1.9
Cc1ccc(SC[C@H](C)CN2CCC(NC(=O)OCc3ccccc3)CCC2=O)cc1 (stereo partly specified),-28,-48,-4.7
COc1ccccc1-c1cn(CC[C@H]2CC[C@H](NC(=O)NC(C)C)[C@@H](CO)O2)nn1,-2,-1,-0.5
COCCNC(=O)C[C@@H]1CC[C@H]2[C@@H](COc3ccc(NC(C)=O)cc3C(=O)N2C)O1,6,9,0.2
COc1cccc(S(=O)(=O)N2CCCCN3[C@H](CO)[C@H](c4ccc(-c5cncnc5)cc4)[C@@H]3C2)c1,-2,0,2.1
CCCN1C[C@@H](C)[C@H](OC)CN(C)C(=O)c2ccc(NC(=O)C3CC3)cc2OC[C@@H]1C,1,5,-1.5
O=C(NC[C@@H]1[C@H](c2ccccc2)[C@@H](CO)N1C(=O)Cc1cccnc1)C1CCC1,3,2,1.4
O[C@@H]1CN(CC2CCCCC2)[C@@H](c2ccccc2)C[C@H]1n1cc(-c2ccc(F)cc2)nn1,4,-5,5.9
CCCC#Cc1ccc2c(c1)O[C@@H](CN(C)S(C)(=O)=O)[C@@H](C)CN([C@@H](C)CO)S2(=O)=O,-2,-14,1.0
C[C@H]1CCCCO[C@H](CN(C)C(=O)Nc2ccc(F)cc2)[C@@H](C)CN([C@@H](C)CO)C(=O)c2cc(NC(=O)Nc3ccc(F)cc3)ccc2O1,-1,0,-1.3
C[C@@H]1CN([C@@H](C)CO)C(=O)c2cc(NC(=O)c3ccncc3)ccc2O[C@@H](C)CCCCO[C@@H]1CN(C)S(C)(=O)=O,-3,-8,-2.5
COc1ccc2c3c([nH]c2c1)[C@H](CO)N(C(=O)NC(C)C)CC31CN(C(=O)c2cccnc2)C1,2,14,-0.5
CCCC#Cc1cnc2c(c1)C(=O)N([C@H](C)CO)C[C@@H](C)[C@H](CN(C)C(=O)c1ccccc1)O2,-2,5,-1.9
CC(C)C#Cc1cnc2c(c1)C(=O)N([C@@H](C)CO)C[C@H](C)[C@@H](CN(C)C(=O)CCN1CCCCC1)O2,7,20,-0.6
COc1ccc([N+](=O)[O-])c(C=CC(=O)c2ccccn2)c1,-15,-12,13
Cc1cccnc1C(c1ccc(F)cc1)N(C)C(=O)C1CCN(CCOc2ccc(Cl)cc2Cl)CC1 (stereo unspecified),-58,-73,9.2
CC(=O)N1[C@@H]2c3ccc(C4=CCCCC4)c(=O)n3C[C@H]1[C@H](CO)[C@H]2C(=O)NC1CCCC1,-1,-3,-2.5
CCC(=O)Nc1ccc2c(c1)C(=O)N(C)C[C@@H](OC)[C@H](C)CN[C@@H](C)CO2,2,4,-1.0
COc1ccccc1-c1cn(CC[C@H]2CC[C@@H](NC(=O)NC(C)C)[C@H](CO)O2)nn1,1,-2,-2.1
Cc1ccc(C(=O)N(Cc2ccco2)c2c(N)n(Cc3ccccc3)c(=O)[nH]c2=O)cc1,15,19,4.5
CCCNC(=O)N[C@@H]1CC[C@@H](CCn2cc(C3CCCCC3)nn2)O[C@H]1CO,0,-3,-3.1
O=C(C[C@@H]1CC[C@H]2[C@@H](COC[C@H](O)CN2S(=O)(=O)c2ccccc2F)O1)NCc1ccccc1Cl,-1,-7,-3.1
C[C@H]1CN([C@@H](C)CO)C(=O)c2cccc(NC(=O)Nc3ccccc3)c2O[C@H]1CN(C)Cc1ccc(C(=O)Nc2ccccc2N)cc1,0,-5,2.3
COc1ccc(S(=O)(=O)N(C)C[C@H]2Oc3c(NS(=O)(=O)c4cn(C)cn4)cccc3C(=O)N([C@@H](C)CO)C[C@H]2C)cc1,-2,3,0.9
O=C(C[C@@H]1CC[C@@H](NC(=O)Nc2ccc3c(c2)OCO3)[C@H](CO)O1)NCc1ccccc1,4,10,0.1
COc1cccc(NC(=O)N2CC(=O)N3[C@H](CO)[C@H](c4ccc(C#CCC5CCCC5)cc4)[C@@H]3C2)c1,0,5,-0.9
O=C(Cc1ccccc1)N[C@H]1C=C[C@@H](CC(=O)N2CCCCC2)O[C@@H]1CO,2,4,0.5
CC(=O)N(C)C[C@@H]1Oc2ncc(C#C[C@H](C)O)cc2C(=O)N([C@H](C)CO)C[C@H]1C,5,9,-2.1
COc1cccc(Nc2nc(C(N)C(C)C)cs2)n1 (stereo unspecified),8,13,3.1
C[C@H](CO)N1C[C@H](C)[C@H](CN(C)Cc2ccc(C(=O)O)cc2)Oc2ccc(NC(=O)Nc3cccc4ccccc34)cc2CC1=O,0,8,0.1
C[C@@H]1CN([C@@H](C)CO)C(=O)c2cccc(NC(=O)C3CC3)c2O[C@H]1CN(C)C(=O)Nc1ccc(C(F)(F)F)cc1,-5,6,-3.0
CO[C@@H]1CN(C)C(=O)c2cc(NC(=O)c3ccc4c(c3)OCO4)ccc2OC[C@H](C)N(CC2CC2)C[C@@H]1C,-1,-6,-1.0
C[C@@H]1CCCCO[C@@H](CN(C)C(=O)Nc2ccc3c(c2)OCO3)[C@@H](C)CN([C@H](C)CO)C(=O)c2cc(NS(=O)(=O)c3ccc(F)cc3)ccc2O1,4,-2,-0.7
C[C@@H]1CCCCO[C@H](CN(C)C)[C@H](C)CN([C@H](C)CO)C(=O)c2cc(NS(=O)(=O)c3cn(C)cn3)ccc2O1,0,-3,-4.2
CC(=O)N(C)C[C@H]1Oc2cc(C#Cc3ccncc3)ccc2S(=O)(=O)N([C@H](C)CO)C[C@@H]1C,-2,-11,3.6
C[C@H](CO)N1C[C@H](C)[C@H](CN(C)S(=O)(=O)c2ccccc2)Oc2ccc(NC(=O)Cn3cnnn3)cc2C1=O,4,7,0.4
CC(C)CN1CCC(CN2C(=S)NC[C@@H]2Cc2ccccc2)CC1,-4,4,-3.8
O=C(c1ccc(F)cc1)N1C[C@H]2[C@@H](c3ccccc31)[C@@H](CO)N2Cc1ccc2c(c1)OCO2,-12,-24,-3.3
C[C@@H]1CN([C@@H](C)CO)C(=O)c2cccc(NC(=O)c3ccncc3)c2O[C@H]1CN(C)S(=O)(=O)c1ccc(F)cc1,3,10,-2.3
C/C=C/c1ccc([C@H]2[C@@H](CO)N(C(=O)NCCC)[C@H]2CNC(=O)C2CC2)cc1,-8,-18,1.5
CO[C@@H]1CN(C)C(=O)c2cc(NC(=O)Nc3cccc(Cl)c3)ccc2OC[C@@H](C)N(C)C[C@H]1C,-5,-6,9.1
COc1ccccc1C(=O)Nc1ccc2c(c1)C(=O)N(C)C[C@@H](OC)[C@H](C)CN(CC1CC1)[C@H](C)CO2,1,-1,0.7
Cc1ccc(S(=O)(=O)Nc2ccc3c(c2)CC(=O)N([C@H](C)CO)C[C@H](C)[C@H](CN(C)S(=O)(=O)c2ccc(F)cc2)O3)cc1,0,0,1.0
C[C@H](CO)N1C[C@H](C)[C@H](CN(C)C(=O)c2ccccn2)Oc2ncc(-c3ccccc3)cc2C1=O,1,20,1.5
CCCNC(=O)Nc1ccc2c(c1)C(=O)N(C)C[C@H](OC)[C@H](C)CN(Cc1ccc(-c3ccccn3)cc1)[C@H](C)CO2,-3,7,-1.4
O=C(C[C@H]1C=C[C@@H](NC(=O)C2CCOCC2)[C@@H](CO)O1)NCC1CCCCC1,1,6,0.2
C[C@@H]1CCCCO[C@@H](CN(C)CC2CC2)[C@@H](C)CN([C@H](C)CO)C(=O)c2cc(NC(=O)C3CCCCC3)ccc2O1,6,15,0.5
CN(C)CCCNC(=O)C[C@@H]1CC[C@H]2[C@H](COc3ccc(NC(=O)C4CCC4)cc3C(=O)N2C)O1,5,-2,0.8
C[C@@H]1CN([C@@H](C)CO)C(=O)c2cc(NS(=O)(=O)c3ccc(F)cc3)ccc2O[C@@H](C)CCCCO[C@@H]1CN(C)C(=O)Nc1ccc2c(c1)OCO2,1,-8,-0.2
CO[C@@H]1CN(C)C(=O)c2ccc(NS(C)(=O)=O)cc2OC[C@@H](C)N(CCC(F)(F)F)C[C@H]1C,-1,-4,2.2
Cc1ccccc1S(=O)(=O)N1CC(=O)N2[C@H](CO)[C@H](c3ccc(C#CC4CC4)cc3)[C@H]2C1,3,6,-0.2
CCCCCC(=O)N1C[C@@H](O)[C@H](n2cc(COC(=O)c3ccccc3)nn2)C[C@@H]1c1ccccc1,-13,-27,-2.3
C[C@H]1CN([C@@H](C)CO)C(=O)c2cc(NS(=O)(=O)c3cccs3)ccc2O[C@H]1CN(C)S(=O)(=O)c1ccc(Cl)cc1,0,-10,5.5
COc1ccc(S(=O)(=O)Nc2ccc3c(c2)OC[C@@H](C)NC[C@H](C)[C@H](OC)CN(C)C3=O)cc1,1,7,-1.2
COc1ccc2c3c(n(C)c2c1)[C@@H](CO)N(Cc1ccccn1)CC31CCN(Cc2ccccn2)CC1,3,3,2.1
COc1ccc(S(=O)(=O)Nc2ccc3c(c2)C(=O)N([C@H](C)CO)C[C@H](C)[C@H](CN(C)Cc2ccc(Cl)c(Cl)c2)OCCCC[C@@H](C)O3)cc1,2,6,-1.3

# Exported with bars between the fields: entries from further up.
Compound | Ecoli rRNA inh | Ecoli rRNA inh OD600 | Ecoli rRNA inh RFP
C[C@@H]1CCCCO[C@@H](CN(C)CC2CC2)[C@@H](C)CN([C@H](C)CO)C(=O)c2cc(NC(=O)C3CCCCC3)ccc2O1 | 6 | 15 | 0.5
O=C(Cc1ccccc1)N[C@H]1C=C[C@@H](CC(=O)N2CCCCC2)O[C@@H]1CO | 2 | 4 | 0.5
CCCNC(=O)Nc1ccc2c(c1)C(=O)N(C)[C@@H]1CC[C@@H](CC(=O)O)O[C@@H]1CO2 | 0 | 1 | -2.0
COc1ccc2c3c([nH]c2c1)[C@H](CO)N(C(=O)NC(C)C)CC31CN(C(=O)c2cccnc2)C1 | 2 | 14 | -0.5
CC(C)CN1CCC(CN2C(=S)NC[C@@H]2Cc2ccccc2)CC1 | -4 | 4 | -3.8

# The results go on:
SMILES,Ecoli rRNA inh,Ecoli rRNA inh OD600,Ecoli rRNA inh RFP
COc1ccc(S(=O)(=O)Nc2ccc3c(c2)C(=O)N([C@@H](C)CO)C[C@H](C)[C@H](CN(C)S(=O)(=O)c2c(C)noc2C)OCCCC[C@@H](C)O3)cc1,4,-3,-3.1
C[C@H]1CN([C@@H](C)CO)C(=O)Cc2cc(NS(=O)(=O)c3ccccc3)ccc2O[C@H]1CN(C)Cc1ccc2c(c1)OCO2,-1,-8,8.9
C[C@H](CO)N1C[C@H](C)[C@H](CN(C)S(=O)(=O)c2cn(C)cn2)Oc2ccc(NC(=O)CCC(F)(F)F)cc2CC1=O,3,19,0.3
O=C(Nc1cc(F)ccc1F)N1C[C@H]2[C@@H](c3ccccc31)[C@@H](CO)N2CC1CCCC1,-31,-68,-1.5
COc1cccc(S(=O)(=O)Nc2ccc3c(c2)C(=O)N(C)C[C@@H](OC)[C@H](C)CN(C(=O)Cc2cccnc2)[C@@H](C)CO3)c1,1,0,0.0
O=C(NC1CCCC1)N1CCCCN2[C@@H](CO)[C@H](c3ccc(-c4cncnc4)cc3)[C@@H]2C1,-5,-1,0.9
C[C@H]1CN([C@@H](C)CO)C(=O)c2cc(-c3ccncc3)cnc2O[C@H]1CN(C)C(=O)c1ccncc1,1,1,-2.0
COc1ccc(C(=O)NCC2CCN(C(=O)C(=O)c3cc4ccccc4o3)CC2)cc1,-6,-7,1.7
Cc1cccnc1C1=NOC(Cc2ccccc2)C(=O)N1Cc1ccc2c(c1)OCO2 (stereo unspecified),-18,-24,-13
CCS(=O)(=O)N1[C@H](C#N)[C@@H](c2ccc(C#Cc3ccccc3F)cc2)[C@@H]1CO,-54,-75,-6.1
COc1ccc(S(=O)(=O)N(C)C[C@H]2OCCCC[C@@H](C)Oc3ccc(NS(C)(=O)=O)cc3C(=O)N([C@@H](C)CO)C[C@@H]2C)cc1,-2,5,-0.6
OC(c1ccc(Cl)c(Cl)c1)c1ncc(-c2ccccc2Cl)[nH]1 (stereo unspecified),-53,-74,-16

# Compound profiles (already shown). Order of values: Ecoli rRNA inh	Ecoli rRNA inh OD600	Ecoli rRNA inh RFP
# Entry for COc1cccc(S(=O)(=O)Nc2ccc3c(c2)C(=O)N(C)C[C@@H](OC)[C@H](C)CN(C(=O)Cc2cccnc2)[C@@H](C)CO3)c1 → 1	0	0.0
# Entry for Cc1cccnc1C1=NOC(Cc2ccccc2)C(=O)N1Cc1ccc2c(c1)OCO2 (stereo unspecified) → -18	-24	-13
# Entry for COc1ccc(C(=O)NCC2CCN(C(=O)C(=O)c3cc4ccccc4o3)CC2)cc1 → -6	-7	1.7
# Entry for O=C(NC1CCCC1)N1CCCCN2[C@@H](CO)[C@H](c3ccc(-c4cncnc4)cc3)[C@@H]2C1 → -5	-1	0.9
# Entry for CCS(=O)(=O)N1[C@H](C#N)[C@@H](c2ccc(C#Cc3ccccc3F)cc2)[C@@H]1CO → -54	-75	-6.1
